Screens from PubChem.
UUG fidelity: modulators of start codon recognition fidelity in yeast | S. cerevisiae UUG-firefly luciferase reporter, luminescence/redox ratio | activity score, % at 18.7 µM | 350,000 compounds, 0.13% hits;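 active means replicate mean at a twofold rise or more, about +100% in these data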;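 further: firefly luciferase made from a UUG start codon reports start codon fidelity; reporter light over untreated wells divided by growth signal over untreated wells; some hits fall short of that in this replicate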
MT1-MMP act inh: blocks activation of human MT1-MMP; P50281; HT1080 RFP-PRO-GFP cells, GFP/RFP ratio fluorescence, overnight; percent of plate control window, DMSO zero; GFP/RFP ratio change, % at 20 µM; 360,000 compounds, 0.061% hits; AID 651647;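 active means GFP/RFP ratio change of at least 30% with cell ATP level not reduced by more than half and red fluorescence within 50% of control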; further: strong numbers were not always called active
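Material – HT1080 RFP-PRO-GFP cells · Control set – DMSO wells and RFP-L50D-GFP cells · Incubation – overnight cell settling, then overnight compound exposure, 37 °C, 5% CO2 · Compound dosing – single-point 20 µM compound, 1% DMSO · Read-out – GFP/RFP fluorescence ratio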
PABP polyA inh: PABP-poly(A) binding inhibition | PABP-poly(A) RNA binding, fluorescence polarization | inhibition, % at 35 µM | 290,000 compounds, 1% hits;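 active means 50% or more with normal probe brightness, or confirmed in later tests; inconclusive means above 50% with abnormal brightness, or retests that disagree; inactive means below 50% or failed in later tests; about a fifth of its hits are not listed in these tables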;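 further: calls also rest on retests at 20 µM and on dose response follow-up; controls were probe without protein and protein plus probe with vehicle; some compounds called inactive have numbers as strong as hits; many hits fall short of the cut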
eIF4H inh: inhibitors of RNA binding by human eIF4H; Q15056; eIF4H fluorescence polarization binding assay; inhibition, % at 35 µM; 290,000 compounds, 0.94% hits; AID 2012;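 active means 50% or more with normal probe brightness, or confirmed in later tests; inconclusive means above 50% with abnormal brightness, or retests that disagree; inactive means below 50% or failed in later tests; about a fifth of its hits are not listed in these tables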;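 further: calls also rest on retests at 20 µM and on dose response follow-up; 0% = protein and probe with vehicle and 100% = probe without protein; strong numbers were not always called active; many hits fall short of the cut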
CSC inhib: cancer stem cell inhibition; inhibition, % at 7.5 µM; cancer stem cell-like cells viability, luminescence; 300,000 compounds, 1.1% hits; AID 2717;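 active means mean at 75% or more and at least half the replicates too; inconclusive means mean and replicates disagree; tested in HMLE shEcad cells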;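 further: 0% = median of negative and 100% = median of positive control wells; the first replicate is given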
Env fusion inh: HIV envelope-mediated fusion inhibition | HeLa-JRFL Env/CEM21 cell fusion, luciferase | inhibition, % at 12.3 µM | 360,000 compounds, 1.1% hits;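 active means mean replicate inhibition score of at least 50 and every replicate individually at or above 50; inconclusive means only one of the two criteria met; inactive means mean below 50 and not all replicates reaching 50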;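 further: 0% = plate neutral controls and 100% = maraviroc near 300 nM; one replicate is shown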
Rce1 inhib: blocks yeast Ras-converting enzyme. yeast membranes, quenched prenylated peptide cleavage fluorescence. calls only. 290,000 compounds, 0.27% hits. AID 2563;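 active means fall in fluorescence gain of 50% or more versus controls, with final raw signal at or below 3038400; inconclusive means same 50% fall but final raw signal above 3038400; inactive means fall in fluorescence gain under 50%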;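 further: plate controls were neutral control wells for no effect and wells lacking membranes for full effect; tested at 10 µM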
Target sequence (Q03530 whole entry, looked up): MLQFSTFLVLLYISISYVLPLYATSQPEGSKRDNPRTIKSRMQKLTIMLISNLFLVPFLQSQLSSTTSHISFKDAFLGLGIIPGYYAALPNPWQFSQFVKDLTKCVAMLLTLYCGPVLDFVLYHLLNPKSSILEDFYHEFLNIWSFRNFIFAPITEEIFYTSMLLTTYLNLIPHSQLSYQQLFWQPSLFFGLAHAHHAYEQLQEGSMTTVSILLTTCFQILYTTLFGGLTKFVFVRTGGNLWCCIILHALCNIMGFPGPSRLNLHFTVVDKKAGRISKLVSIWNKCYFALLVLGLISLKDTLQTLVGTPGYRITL
eIF4H inh retest: further read-out of eIF4H inh, marked with its call; inhibition, %; compound at 20 µM; confirmation average;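 mean of two retest wells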
PABP polyA inh retest: further read-out of PABP polyA inh, marked with its call; inhibition, %; compound at 20 µM; confirmation repeats;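 mean of two retest wells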
MT1-MMP act inh RFP: further read-out of MT1-MMP act inh, marked with its call; RFP signal change, %; measured here: RFP expression control read;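 0 = vehicle wells; hits needed this value within 50% of zero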
* hit, by the source's call; i = inactive; ? = inconclusive; . = no result given.

Sample of the layout:
SMILES	UUG fidelity	MT1-MMP act inh	MT1-MMP act inh RFP	PABP polyA inh	eIF4H inh	CSC inhib	Env fusion inh	Rce1 inhib	others
CC1(Br)C2CCCC1C2S(=O)(=O)c1ccccc1 (stereo unspecified)	.	-1	1	6	-3	.	-39	i
O=C(O)C1CCN(S(=O)(=O)c2cccnc2)CC1	-22	7	5	-3	5	-10	.	i

The whole of this part, from the first entry:
SMILES	UUG fidelity	MT1-MMP act inh	MT1-MMP act inh RFP	PABP polyA inh	eIF4H inh	CSC inhib	Env fusion inh	Rce1 inhib	others
CC1(Br)C2CCCC1C2S(=O)(=O)c1ccccc1 (stereo unspecified)	.	-1	1	6	-3	.	-39	i
O=C(O)C1CCN(S(=O)(=O)c2cccnc2)CC1	-22	7	5	-3	5	-10	.	i
O=S(=O)(Nc1cccnc1)c1ccc(Cl)cc1	-13	1	0	-10	-2	-5	-1	i
CCO[C@@H]1OC(C(=O)NC2CC2)=C[C@H](c2ccc3c(c2)OCO3)[C@H]1CCCO	-13	-2	1	6	4	-5	19	i
O=C(Nc1ccc(F)cc1)Nc1cccnc1	-15	3	2	-3	-8	3	-7	i
c1ccc(-c2nnc(N3CCCC3)nc2-c2ccccc2)cc1	-11	5	7	-7	2	.	1	i
O=C(CCCOc1ccccc1)Nc1nc2ccccc2[nH]1	.	-1	-1	-10	-1	11	-20	i
CC(=O)c1ccc(N2CCN(C(=O)C3CCCN(S(=O)(=O)c4c(C)[nH]c(=O)[nH]c4=O)C3)CC2)cc1 (stereo unspecified)	.	0	4	-1	-5	-7	-11	i
Nc1nc(NCCCN2CCOCC2)nc(Nc2ccccc2)c1[N+](=O)[O-]	.	2	3	10	2	-9	-172	i
CC(C)OCCCn1c(SC(C)C(=O)NCC2CCCO2)nc2cc(Cl)ccc2c1=O (stereo unspecified)	.	2	0	.	.	.	20	i
O=[N+]([O-])c1cccc(CN2CCC(Cc3ccccc3)CC2)c1	-20	-1	-2	17	7	25	4	i
Cc1ccc(F)cc1NC(=O)CN1C(=O)NC(C)(c2ccc3c(c2)OCCO3)C1=O (stereo unspecified)	6	-1	2	.	.	-12	-5	.
O=C(C1CCCN(Cc2nc(-c3cccs3)no2)C1)N1CCOCC1 (stereo unspecified)	-13	-1	-1	7	5	-3	-1	i
CCC(C)c1ccccc1OCCOCCN1CCCC1 (stereo unspecified)	-13	1	-2	-3	7	15	-19	i
Fc1cccc2sc(Nc3nnc(-c4ccccc4)o3)nc12	0	7	-7	21	37	63	-80	i
O=C(O)c1cc2ccc3ccccc3c2[nH]1	.	-3	2	13	15	5	.	i
O=C(NNc1ccccc1C(F)(F)F)c1cccs1	-10	0	2	-3	-5	15	2	i
CC(=O)Nc1nc(CC(C)C)cc(-c2ccco2)c1C#N	-11	-2	-2	60	1	-9	-34	i	eIF4H inh retest=-2;PABP polyA inh retest=6
CC(C)N1CCN(Cc2ccc(OC3CCCC3)cc2)CC1CCO (stereo unspecified)	0	0	4	-2	12	?	13	i
O=C(O)c1ccc(/C=C/c2ccc3cccc(O)c3n2)cc1	.	9	8	-2	37	.	-41	i
CSCC[C@H](NC(=O)CCCn1nnc2ccccc2c1=O)C(=O)O	.	-10	1	6	5	0	6	i
CCSc1nnc(NC(=O)C2Cc3ccccc3CN2S(=O)(=O)CC)s1 (stereo unspecified)	.	-1	-6	-2	10	25	-12	i
COc1ccc(C)cc1NC(=O)COC(=O)c1ccc2ccccc2n1	-2	1	5	.	.	.	0	.
Cc1ccc2c(CN(C)Cc3cccc(F)c3)cc(=O)oc2c1C	-2	4	-2	-7	-2	1	39	i
NC(=O)CCn1c(C(=O)c2ccc(Cl)cc2)c2ccccc2[n+]1[O-]	-11	-1	6	9	-15	-21	7	i
O=C(N/N=C/c1cn(-c2ccccc2)nc1-c1cc2ccccc2o1)c1c[nH]c2ccccc12	.	0	-3	5	-12	5	-83	i
Cc1cccc(N2N=C(C(=O)O)CCC2=O)c1	-9	0	2	0	-2	-4	7	i
O=C(NCc1ccc(F)cc1)C1CCN(C(=O)Nc2ccc(F)cc2)CC1	-12	1	0	9	-6	4	9	.
O=C(COc1ccc2ccccc2c1Br)NC(=S)Nc1cccc(CO)c1	.	-2	-1	-3	0	-7	.	i
Cc1cc(=O)c(C(=O)O)nn1-c1ccc(Cl)cc1	-2	5	4	13	-7	-27	-10	i

Reprinted at random: 4 records from the list, in no set order.
SMILES	UUG fidelity	MT1-MMP act inh	MT1-MMP act inh RFP	PABP polyA inh	eIF4H inh	CSC inhib	Env fusion inh	Rce1 inhib	others
Cc1cccc(N2N=C(C(=O)O)CCC2=O)c1	-9	0	2	0	-2	-4	7	i
O=C(COc1ccc2ccccc2c1Br)NC(=S)Nc1cccc(CO)c1	.	-2	-1	-3	0	-7	.	i
CC(=O)Nc1nc(CC(C)C)cc(-c2ccco2)c1C#N	-11	-2	-2	60	1	-9	-34	i	eIF4H inh retest=-2;PABP polyA inh retest=6
CSCC[C@H](NC(=O)CCCn1nnc2ccccc2c1=O)C(=O)O	.	-10	1	6	5	0	6	i

Following part:
SMILES	UUG fidelity	MT1-MMP act inh	MT1-MMP act inh RFP	PABP polyA inh	eIF4H inh	CSC inhib	Env fusion inh	Rce1 inhib	others
CCOC(=O)c1cc(S(=O)(=O)N2CC(C)CC(C)C2)cn1C (stereo unspecified)	-10	-1	-5	.	.	-10	0	i
O=S(=O)(NCc1cc(-c2ccc(Cl)cc2)no1)c1ccccc1	-11	2	-1	-6	-9	15	-73	i
O=C(CC1Oc2ccccc2NC1=O)NCc1ccc(Cl)cc1 (stereo unspecified)	-5	-4	1	9	-14	-16	-49	i
COC(=O)Cn1cc(C(=O)OC)c2ccccc21	4	5	4	16	-6	-5	-26	i
Cc1c(F)cccc1NS(=O)(=O)c1ccc(OCCNS(C)(=O)=O)cc1	.	-4	-7	30	2	0	21	i
CC1CCN(CCCNS(=O)(=O)c2cc(Br)cc3c2N(C(=O)C2CC2)CC3)CC1	-12	3	7	2	-6	-15	-4	.
Cc1nn(Cc2ccc(C(=O)Nc3nc4c(C)cccc4s3)o2)c(C)c1Br	-7	-4	-14	0	-3	-11	.	i
CCOc1ccc(OCCC(=O)Nc2ccccc2C(=O)NC2CC2)cc1	-5	3	6	.	.	.	-10	.
COc1cc(C(=O)NCCC2=CCCCC2)ccc1OC1CCN(C(C)=O)CC1	-6	1	-1	-6	-7	4	14	.
Nc1nc2c3ccccc3nc(C3CC3)n2n1	0	6	5	0	-12	-5	.	i
O=c1nc2n(c3c4c(sc13)CCC4)CCC2	9	-3	-4	-4	-3	-7	i	i
O=C(O)c1ccc2c(c1)C(=O)N(c1ccc(OCc3ccccc3)cc1)C2=O	-23	3	1	0	4	1	-6	i
O=C(COc1ccc(/C=N/NC(=O)c2ccncc2)cc1)Nc1ccccc1	-33	-1	4	-5	-16	-29	-15	i
CCn1c(=O)ccc2cc([N+](=O)[O-])ccc21	-14	1	0	-12	-13	-9	5	i
CC(C)CN(C(=O)COC(=O)Cc1c[nH]c2ccccc12)c1c(N)n(Cc2ccccc2)c(=O)[nH]c1=O	-11	2	0	.	.	11	-8	.
COc1ccccc1CNc1cc(C)ccn1	-18	0	3	-6	-15	13	-6	i
O=C(Nc1c(Cl)cc(Cl)cc1C(=O)NCc1cccnc1)c1ccc(Cl)cc1Cl	-8	2	6	-1	-2	-1	.	.
S=C(NCCN1CCOCC1)Nc1ccc(Cl)cc1	-5	-2	4	0	-1	5	11	i
CC(C)(C)c1ccc(OCc2ccc(C(=O)N3CCOCC3)o2)cc1	4	6	-9	0	1	.	7	i
Brc1ccc(OCc2nnc3n2CCC3)cc1	.	-1	2	-8	-2	-10	-4	i
O=C(C=CC=Cc1ccccc1)c1ccc([N+](=O)[O-])cc1	3	-5	1	.	.	.	-15	.
Cc1ccc(C)c(S(=O)(=O)NC(CC(C)C)C(=O)O)c1 (stereo unspecified)	7	-4	6	-11	-9	0	-61	i
O=C(Nc1ccc(F)cc1)C(=O)c1cn(CC(=O)N2CCOCC2)c2ccccc12	-8	-2	-3	-1	-9	-4	-9	i
CCS(=O)(=O)N1CCC(C(=O)Oc2ccccc2Br)CC1	-2	-2	1	2	-10	-7	8	i
Cc1ccc(CC(CC(=O)O)C(=O)NCc2ccccc2)cc1 (stereo unspecified)	-13	-2	2	-4	-8	7	.	i
CC(C)C(NS(=O)(=O)c1ccc2c(c1)C(C)(C)C(=O)N2C)C(=O)NCc1ccc(F)cc1 (stereo unspecified)	-35	-1	5	7	-1	.	-10	i
COC(=O)[C@@H](NC(=O)Nc1ccccc1F)C(C)C	-13	-2	2	-3	-2	-13	24	i
Cn1ccnc1SCC(=O)N(C1CCCCC1)C1CCCCC1	-23	-7	-2	-4	-10	-25	-9	i
Cc1ccc(-c2onc3ccc(C(=O)O)cc23)cc1	-32	-4	-1	-4	0	-15	-41	i
Cc1ccccc1NC(=O)c1[nH]cnc1C(=O)NN	-27	1	2	4	-2	-8	6	i
CCCc1cc(NC(=O)CCl)n(-c2ccccc2)n1	-17	-1	0	-6	3	-8	14	.
Cc1ccc(CC(=O)Nc2nc3ccccc3s2)cc1	-1	-11	-6	1	3	-16	-76	i
COc1ccc(CN2C(=O)c3cccnc3C2=O)cc1S(=O)(=O)NCc1ccc(C)cc1	-15	1	4	4	-6	-21	-6	i
COc1cc(C(=O)Nc2ccc(C)c(S(=O)(=O)N(C)C)c2)ccc1OCC(=O)N1CCOCC1	-9	4	-1	.	.	2	-229	.
O=C1c2cc(Br)ccc2OC2C=CC=CC12 (stereo unspecified)	-15	3	5	.	.	.	-129	.
CC1=C(C(=O)Nc2cccc(F)c2)C(c2ccsc2)C2=C(CC(C)(C)CC2=O)N1 (stereo unspecified)	.	9	-7	3	-2	65	-68	i
Cc1ccc(NC(=O)N2CCCC(c3ccccc3)C2)cc1 (stereo unspecified)	-9	0	-2	6	-6	-2	-5	i
COc1ccccc1-n1nnnc1S(=O)(=O)Cc1ccc(Cl)cc1	-10	-9	-16	8	0	49	.	i
Cn1cc(CN(Cc2ccccc2)C[C@@H]2CCC(=O)N2)c(-c2ccccc2F)n1	.	0	0	6	-11	-9	0	i

For reference, part of the list above.
SMILES	UUG fidelity	MT1-MMP act inh	MT1-MMP act inh RFP	PABP polyA inh	eIF4H inh	CSC inhib	Env fusion inh	Rce1 inhib	others
Cc1ccc(NC(=O)N2CCCC(c3ccccc3)C2)cc1 (stereo unspecified)	-9	0	-2	6	-6	-2	-5	i
COc1ccccc1-n1nnnc1S(=O)(=O)Cc1ccc(Cl)cc1	-10	-9	-16	8	0	49	.	i

These rows are one share of the data, so the mix of outcomes need not match the whole.
